# Screens (PubChem)
# S aureus helic – inhibitors of S. aureus replicative helicase, primary screen, biochemical, fluorescence unwinding readout; 0.05% of 120,000 active; inhibition, %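 (tested at about 80 µM)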; AID 485395, 2010; purified S. aureus helicase, fluorescence unwinding assay; about half of the hits fall short of the stated cut; replicative DNA helicase (DnaC/DnaB), Staphylococcus aureus;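 active = both duplicates at 50% or more, or one of them with a favoured structure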;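 also: 0% = mean of negative control wells and 100% = mean of positive control wells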
# MgrA DNA FP – S. aureus MgrA activity modulators, primary screen, biochemical, S. aureus Newman, fluorescence polarization; inhibition, %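 (about 10 µg/mL by stock and volumes)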; 0.13% of 84,000 active; MgrA-DNA binding;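 active = above 50% in either of two replicates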;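 also: 0% = protein plus DNA without compound and 100% = DNA alone without protein; higher means less MgrA bound to DNA so lower polarization; one replicate is shown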
# * marks the source's active call; other numbers are inactive results; nt = not tested or not shown; & = joins results of further samples. These rows are one share of the data; the hit share may differ from the screen's.
SMILES,S aureus helic,MgrA DNA FP
NC(=NC(=O)c1ccc(Cl)cc1)N1N=CCC1c1ccccc1 (stereo unspecified),10,1.4
O=C(NC1=NCCCCCN1)Nc1cccc(Cl)c1,14,-0.8
CN1CCN(/C=N/c2ncc(C(F)(F)F)cc2Cl)CC1,nt,-2.3
C=CCN(CC=C)C(=O)c1cccc(OC)c1,-10,2.0
COc1ccc(OC)c(Nc2nc3nonc3nc2Nc2ccc(F)cc2)c1,nt,0.2
Cc1csc(=O)n1CC(=O)OCC(=O)NC1(C#N)CCCCC1,0,nt
O=c1cc(N2CCN(c3ccccc3)CC2)[nH]c(=O)n1-c1ccc(Cl)cc1,3,0.0
N#Cc1ccccc1NC(=O)COc1ccc2ccc(=O)oc2c1,-4,nt
CCN(CC)S(=O)(=O)c1c(C)cc(C)cc1C,13,3.5
C=CCNC(=O)CSc1nnc(CSc2cccs2)n1C,nt,4.2
CCc1ccc(OCC(O)Cn2c(SCCC(=O)O)nc3c2c(=O)[nH]c(=O)n3C)cc1 (stereo unspecified),nt,-0.7
CCOC(=O)c1c(C)nn(-c2ccc(C(F)(F)F)cc2)c1C,nt,-1.1
Cc1nc(SCc2ccccc2C#N)n(C2CCCC2)c1C,3,nt
COCc1cc(Cl)nc2cc(NC(=O)C(F)(F)F)c(C)cc12,nt,1.6
CCCCc1ccc(NC(=O)N=S2CCN(c3ncc(C(F)(F)F)cc3Cl)CC2)cc1,nt,0.2
O=C(Nc1ccc(-n2nc(C(F)(F)F)cc2-c2cccs2)cc1)c1ccno1,nt,1.1
NS(=O)(=O)c1ncn(Cc2ccccc2)n1,-6,-1.9
CC1=[N+](CCC#N)c2ccccc2C1(C)C,-5,-1.2
Cc1ccc(NS(=O)(=O)Cc2ccccc2)nc1,17,nt
O=CN/N=C/c1ccc(Cl)cc1,14,nt
c1coc(-c2nc3ccccc3nc2-c2ccco2)c1,nt,22
FC(F)(F)c1ccc(Cl)c(NC(=S)NN=C2CCCCCC2)c1,nt,2.1
COc1ccc(C2Nc3nc4ccccc4n3C(C)=C2C(=O)Nc2ccccc2)cc1 (stereo unspecified),4,nt
OC(Cc1nc2ccccc2o1)c1ccccc1 (stereo unspecified),22,0.5
O=C1CC(=O)CC(c2c(F)cccc2Cl)C1,nt,2.0
SMILES,S aureus helic,MgrA DNA FP
COc1ccc(CN(C(=O)c2ccc(CN3CCOCC3)o2)C(C(=O)NCC2CCCO2)c2ccc(F)cc2)cc1 (stereo unspecified),3,-1.6
COc1ccc(-c2cc(C3CC3)c(C#N)c(N)c2C#N)cc1,-2,nt
Cc1cc(-c2onc(C)c2/C(N)=N/O)no1,3,nt
N#CC(C#N)c1ccc(C(F)(F)F)cn1,-9,4.5
O=C(Nc1ccc(-c2nc3ccccc3s2)cc1)c1ccno1,nt,-4.2
COCc1c(C(=O)NCC2COc3ccccc3O2)oc2ccccc12 (stereo unspecified),-8,nt
Cc1cc(C)cc(NC(=O)Nc2ccc(S(=O)(=O)Nc3cc(C)on3)cc2)c1,nt,-0.9
CC(C)OC(=O)c1cc2c(ccn2C)n1CC(=O)N1CCN(c2ccccc2F)CC1,12,-1.8
O=C(c1ccc(F)cc1)N1CCCC2C=CC=CC21 (stereo unspecified),-17,nt
COC(=O)c1ccc2c(=O)n(-c3ccc(C)cc3)c(Nc3ccccc3)nc2c1,10,0.0
Cc1cc(S(=O)(=O)NCc2ccccc2)ccc1OCC(=O)N1CCOCC1,7,-2.4
O=C(NCc1ccc(Cl)cc1Cl)c1ccc(Br)o1,19,-0.3
CCCCn1c(=O)[nH]c2ccccc2c1=O,-5,nt
Cc1cccc(Cc2cnc(N3C(=N)SC(C)C3=O)s2)c1 (stereo unspecified),0,3.2
C/C(=N\O)C(=O)c1ccc(C)cc1,10,nt
Cc1nc(N)nc(C)c1CCC(=O)O,-17,1.5
COC(=O)CCN1C(=O)/C(=C\c2ccc(O)c(OC)c2)SC1=S,-110,nt
COc1cc(OC)cc(C(=O)Nn2c(-c3ccc(Br)cc3)nc3ccccc3c2=O)c1,nt,-0.4
COc1ccc2[nH]c3c(=O)n(-c4ccc(C)c(C)c4)c(O)nc3c2c1,-11,nt
CC(=O)c1ccc(Sc2ccccc2)c([N+](=O)[O-])c1,nt,-2.6
CCC(C)n1nccc1NC(=O)COc1ccccc1 (stereo unspecified),-23,nt
Cc1cc(-c2noc(-c3snnc3C)n2)no1,nt,0.1
Nc1ccc(CCc2nc3ccccc3o2)cc1,-2,-0.9
COc1ccc2nc(SC)[nH]c2c1,0,1.5
O=C(c1cccnc1)N1CCc2ccccc2C1,-16&3,-2.5

# As entered above:
# Cc1cc(S(=O)(=O)NCc2ccccc2)ccc1OCC(=O)N1CCOCC1 in MgrA DNA FP = -2.4
# COc1ccc(C2Nc3nc4ccccc4n3C(C)=C2C(=O)Nc2ccccc2)cc1 (stereo unspecified) in S aureus helic = 4

# Back to the main list; the five compounds before the break are reprinted first.
SMILES,S aureus helic,MgrA DNA FP
CCC(C)n1nccc1NC(=O)COc1ccccc1 (stereo unspecified),-23,nt
Cc1cc(-c2noc(-c3snnc3C)n2)no1,nt,0.1
Nc1ccc(CCc2nc3ccccc3o2)cc1,-2,-0.9
COc1ccc2nc(SC)[nH]c2c1,0,1.5
O=C(c1cccnc1)N1CCc2ccccc2C1,-16&3,-2.5
O=C1CC(=O)CC(c2ccc(Cl)cc2)C1,nt,-0.5
O=C(CSCC(=O)c1ccc2c(c1)Cc1ccccc1-2)Nc1ccccc1,-4,0.9
Nc1sc2c(c1C(=O)NCc1ccco1)CCCC2,7,nt
CC(/C=C1\SC(=S)N(CC(=O)N2CCN(c3ccccc3)CC2)C1=O)=C\c1ccccc1,-20,nt
OCCNc1nc2ccccc2s1,6,0.6
CCOC(=O)c1cnc(SCC(=O)c2ccccc2)nc1N,-18,4.2
CNC(=O)C1c2ccccc2Oc2ccccc21,1,0.8
CC/C=N/NC(=O)c1cccc(F)c1,5,nt
CN(C)N=C1c2cc(S(=O)(=O)N(C)C)ccc2-c2ccc(S(=O)(=O)N(C)C)cc21,5,nt
CC1=N/C(=C/c2cc3ccccc3nc2Sc2ccc(C)cc2)C(=O)O1,7,3.0
N#Cc1c(CSc2ccccc2N)cc(=O)n2c1sc1ccccc12,-221,nt
CSc1ccccc1C(=O)Nc1ccc(S(=O)(=O)N2CCCC2)cc1,-1,0.3
COC(=O)c1cc2oc(C)cc2n1CC(=O)N1CC(C)CC(C)C1 (stereo unspecified),-12,0.3
CC(=O)Nc1cc(C(=O)NCCCN2CCC(C)CC2)ccc1S(=O)(=O)c1ccc(Cl)cc1,13,-0.8
CCCN(CCC)CCNc1cc(C)nc2c(-c3ccccc3OC)c(C)nn12,21,-0.4
Cc1csc(-c2coc3cc(O)cc(C)c3c2=O)n1,10,-2.9
NC(=NC(=O)c1ccc(OCC(F)(F)F)nc1)c1ccccc1,nt,-0.3
N#Cc1c(NC(=O)CSc2nc3ccccc3[nH]2)sc2c1CCCC2,nt,2.4
Cc1ccc2nc(-c3cccnc3)oc2c1,3,-0.5
CC(=O)N1c2ccccc2NC(=O)C1(C)C,14,nt
CN(C(=O)CSc1nncn1-c1ccccc1)c1ccccc1,6,nt
CCc1ccc2c(CC(=O)Nc3cccc(-c4nnc5n4CCCCC5)c3)coc2c1,3,nt
CSc1c(C#N)c(-c2cc(C(C)(C)C)oc2C)nn1-c1ccccc1,nt,-0.9
O=C(CCCSc1nc2scc(-c3cccs3)c2c(=O)n1-c1ccccc1)N1CCOCC1,9,nt
COc1ccc(N(C)C(=O)C2CCC(CNS(=O)(=O)c3cccc4nsnc34)CC2)cc1 (stereo unspecified),5,nt

# A portion from the list above:
SMILES,S aureus helic,MgrA DNA FP
CSc1c(C#N)c(-c2cc(C(C)(C)C)oc2C)nn1-c1ccccc1,nt,-0.9
O=C(CCCSc1nc2scc(-c3cccs3)c2c(=O)n1-c1ccccc1)N1CCOCC1,9,nt
COc1ccc(N(C)C(=O)C2CCC(CNS(=O)(=O)c3cccc4nsnc34)CC2)cc1 (stereo unspecified),5,nt

# Next entries:
SMILES,S aureus helic,MgrA DNA FP
CC1CCC(NC(=O)c2cc(S(=O)(=O)N3CCCCC3)c[nH]2)CC1 (stereo unspecified),-13,nt
Cc1nc2c([nH]1)C(c1ccc(C(C)C)cc1)C(C#N)=C(N)O2 (stereo unspecified),10,-5.5
Cc1ccccc1-c1nnc(CN2CCc3ccccc3C2)o1,-6,nt
CC1(C)COC(c2ccccc2CO)=N1,nt,2.3
O=C(Cc1ccccc1)NCC1(c2ccccc2)CCCC1,19,-0.2
CC(C)=CCC/C(C)=C/C1OCCCO1,-1,-0.8
CNCc1ccsc1,-2,nt
CC(=O)N1CCSC1C(=O)NN (stereo unspecified),nt,-2.9
CCOC(=O)c1c(C)noc1-c1csc(COc2cccc(Cl)c2)n1,-37,nt
C#CCn1nc(-c2ccccc2)ccc1=O,24,nt
Cc1cc(Cl)c2cccc(Br)c2n1,1,2.0
COc1ccc(OCC(O)CN2C(=O)c3ccccc3S2(=O)=O)cc1 (stereo unspecified),-19,0.7
COC(=O)c1sc(N2CCOCC2)c(C#N)c1-c1ccc(Cl)cc1,nt,-2.4
O=S(=O)(N/N=C/c1ccccc1)c1ccccc1,24,-0.7
CC(C)(C)NCC(O)c1ccc(O)c(CO)c1 (stereo unspecified),nt,1.6&3.6
Cc1c(C(=O)N2CCN(S(=O)(=O)/C=C/c3ccccc3)CC2)oc2ccc(Cl)cc12,12,nt
CCOC(=O)C1=C(C)N=c2s/c(=C\c3ccc(SC)cc3)c(=O)n2C1c1cc(OC)ccc1OC (stereo unspecified),nt,2.5
COC(=O)c1ccc(C(=O)Nc2ccc3nc(-c4ccccn4)[nH]c3c2)cc1,5,3.6
O=C(Cn1nnc(-c2cccc(C(F)(F)F)c2)n1)N(C1CCCC1)C1CCS(=O)(=O)C1 (stereo unspecified),10,nt
COc1cc2ccc(=O)oc2c(OC(C)=O)c1OC(C)=O,3,5.2
CCOC(=O)CSc1nnc(CNC(=O)c2cccs2)n1Cc1ccccc1,6,nt
CC(=O)N/N=C/c1cn(-c2ccccc2)nc1-c1cccs1,4,nt
O=C(Nc1ccc(NC(=O)C2CCCCC2)nc1)C1CC1,16,-1.2
C/C(=C\c1nsc(Nc2ccccc2)n1)NCc1ccccc1,4,nt
CCn1c(SC/C(O)=C(\C#N)C(=O)NCc2ccccc2)nnc1-c1cccs1,-8,nt
SMILES,S aureus helic,MgrA DNA FP
O=C(Nc1ccccc1)c1cccnc1NCCc1ccccc1,19,-1.2
COC(=O)c1ccccc1NC(=O)c1cc[n+]([O-])cc1,13,nt
Cc1c(F)cccc1NS(=O)(=O)c1cc2c3c(c1)c(C)cc(=O)n3CCC2,-3,-0.7
CC(c1ccco1)N(C(=O)c1cccc(S(=O)(=O)N(C)C)c1)c1ccccn1 (stereo unspecified),0,nt
COc1ccc(-c2nn(-c3ccccc3)cc2CSC(=N)N)cc1OC,14,-13
O=C1CSC(=O)N1CCN1C(=O)S/C(=C\c2ccccc2O)C1=O,14,4.3
CN(Cc1ccccc1)C(=O)Cc1ccccc1,14,-7.2
O=C(N/N=C/c1cccnc1)c1ccccc1,3,nt
Cc1cc(C)nc(SCC(=O)OCN2C(=O)c3ccccc3C2=O)n1,1,-0.7
CC(C(=O)NC1CCCC1)n1c2ccccc2c2cnn(C)c(=O)c21 (stereo unspecified),7,-2.5
Cc1ccc(C(=O)COC(=O)C2CCC2)cc1,8,nt
CCCCN1C(=O)C(O)(c2nnc(-c3ccccc3)o2)c2ccccc21 (stereo unspecified),-6,nt
CCCc1cc2c(cc1N)OCO2,-3,-4.9
CCc1nc(NCCc2ccccc2)c(C#N)c2c1CCCC2,9,nt
O=C(O)C1CC=CCC1C(=O)N1CC=C(c2ccccc2)CC1 (stereo unspecified),-15,nt
Clc1ccccc1/C=N/c1c(-c2ccco2)nc2ccccn12,8,3.3
CCOc1cc(/C=N/O)ccc1OCc1cccc(F)c1,7,1.0
CCc1ccc(NC(=O)NC(C)(C)C)cc1,nt,-2.9
Cc1c2c(=O)n(-c3ccccc3)[nH]c2cc(=O)n1Cc1ccccc1,-2,3.3
Cc1cc(C(=O)NN)nn1C,nt,-1.2
CC(C)CCNC(=O)c1cccc2c1SCCC2=O,3,2.2
COc1ccc(-c2noc(CN(C(=O)Nc3cccc(C)c3)C(C)C)n2)cc1,11,-2.2
CCNC(=S)Nc1c(C)n(C)n(-c2ccccc2)c1=O,11,4.7
NS(=O)(=O)c1ccc(CCn2c(=S)[nH]c3ccccc3c2=O)cc1,-2,nt
CCCCNC(=O)c1cc(=O)[nH]c2ccccc12,11,nt
SMILES,S aureus helic,MgrA DNA FP
C=C(C)CSc1nc2ccc(Br)cc2c(=O)n1CC(C)O (stereo unspecified),15,nt
OCc1cn(-c2ccccc2)nc1-c1cccnc1,14,-1.9
O=C1CCc2cc(S(=O)(=O)Nc3ccccc3)cc3c2N1CCC3,11,nt
COc1ccc(SCc2nc3ccccc3o2)cc1,15,nt
CC1CN(S(=O)(=O)c2cc(C(=O)N(C)Cc3cccs3)ccc2Cl)CC(C)O1 (stereo unspecified),-17,nt
NCc1ccccc1-n1ccnc1,5,3.6
Nc1cccc(-c2csnn2)c1,11,-2.5
CC1CCCCN1CCCNC(=O)Cn1ncc2c3ccccc3n(Cc3ccc(F)cc3)c2c1=O (stereo unspecified),9,nt
Cc1cc2cc(CNC(=O)c3ccco3)ccc2n1C,6,nt
O=C(CN(CC(=O)N1CCOCC1)S(=O)(=O)c1ccc2ccccc2c1)N1CCOCC1,0,nt
COC(=O)c1ccc(C(=O)Nc2ccc3c(c2)nc(C)n3-c2ccccc2)cc1,13,nt

# Shown with bars between the fields: entries from further up
Compound | S aureus helic | MgrA DNA FP
Clc1ccccc1/C=N/c1c(-c2ccco2)nc2ccccn12 | 8 | 3.3
N#Cc1ccccc1NC(=O)COc1ccc2ccc(=O)oc2c1 | -4 | nt
CCCCNC(=O)c1cc(=O)[nH]c2ccccc12 | 11 | nt
CCOC(=O)c1c(C)noc1-c1csc(COc2cccc(Cl)c2)n1 | -37 | nt
